# ClpP mod: qHTS Assay for Activators of ClpP. purified B. subtilis ClpP, FRET peptide cleavage, 20 min. ATP-dependent Clp protease proteolytic subunit (Bacillus subtilis (strain 168)), P80244. Potency, µM (series often up to 57.5 µM), without a hit: top-dose activity change, negative = active. actives 1.9% (n = 340,000); active = well fitted falling curve with a large enough effect; inconclusive = small, poorly fitted or top-dose-only effect; inactive = no such curve, though single readings can be large or run the other way; further: potency means the concentration at half of the fitted maximal effect; the source files actives as falling curves though it sought activators and does not explain the sign; nearly all actives have a fitted effect of over 65% in size; many hits overshoot -100%
# Target sequence (P80244 whole entry, looked up): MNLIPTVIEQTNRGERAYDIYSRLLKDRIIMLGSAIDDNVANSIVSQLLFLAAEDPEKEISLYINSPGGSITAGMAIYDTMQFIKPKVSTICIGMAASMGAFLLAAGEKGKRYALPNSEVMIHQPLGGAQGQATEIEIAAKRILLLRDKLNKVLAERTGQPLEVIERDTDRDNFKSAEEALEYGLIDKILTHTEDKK
#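 FRET quenching reversal measured ClpP activation: 10 microg/mL B. subtilis ClpP at pH 8 with the FRET-FV decapeptide, read at 430 nm after 320 nm excitation. The 20-min minus 0-min signal was scaled between DMSO/no-enzyme wells and ADEP (5.8 microM final).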
# gsp ag: agonists of gsp mutant (McCune-Albright syndrome) | gsp mutant cells, cAMP HTRF, 30 min; control for the full effect not named in the record | Potency, µM (highest dose often 76.9 µM), for the others: at the highest dose activation (cAMP increase), actives largely listed as activators | actives 0.13% (n = 340,000); active = well fitted activation curve with a large enough effect; inconclusive = small, poorly fitted or top-dose-only effect, or another doubt; inactive = no such curve, though single readings can be large or run the other way; cell line not stated here;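 further: phosphodiesterase inhibitor Ro 20-1724 added with compounds to block cAMP breakdown; potency means the concentration at half of the fitted maximal effect; nearly all actives have a fitted effect of over 60% in size; about a fifth of the inactives were tested at one dose only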
#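 Cells in DMEM/10% FBS with G418 were pretreated with compounds in DMSO plus […] (300 uM stock) for 30 min at 37C. cAMP was measured by HTRF (cAMP-d2 plus anti-cAMP antibody-K) after 30 min at room temperature.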
# Sfp inh: inhibitors of Bacillus subtilis Sfp phosphopantetheinyl transferase. Q9F4F7. Biochemical Sfp PPTase activity, qHTS. Potency, µM, without a hit: max response, negative = inhibition, hits mostly inhibitors. actives 3.5% (n = 310,000); active means well fitted inhibition curve with a large enough effect; inconclusive means small, poorly fitted or top-dose-only effect, or another doubt; inactive means no such curve, though single readings can be large or run the other way;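 further: the enzyme is Sfp with the accession as filed and its product quenches rhodamine fluorescence; potency means the concentration at half of the fitted maximal effect; 0% = enzyme reaction without inhibitor and -100% = no enzyme wells; top concentration of the series not given in the record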
#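 Buffer: 50 mM Hepes-Na pH 7.6, 10 mM MgCl2, 0.01% Nonidet P-40, 0.01% BSA. Enzyme 15 nM, pre-exposed to compound 15 min; substrates then added and fluorescence change tracked over 30 min.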
# CtBP-E1A blk: blocks the CtBP interaction with E1A; AlphaScreen GST-E1A/His-CtBP binding, 1536-well; stronger effect = lower value; control for the full effect not named in the record; activity change, % (concentration not given with the values); actives 0.49% (n = 340,000); AID 651724; in the data active means activity change below about -65%; inconclusive means about -30% to -65%; inactive means above about -30%; further: on the % scale 0 is the no-effect control and ±100 the full control effect
#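 AlphaScreen with 125 nM GST-E1A and 125 nM His-CtBP (5X stocks) in Tris pH 8.0, 300 mM NaCl, BSA, Tween 20, TCEP. Compounds preincubated 2 h at 37 deg C, then glutathione donor/nickel acceptor beads added for 1 h at 37 deg C in dark.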
# TRPV1 potentiator: human TRPV1 potentiation. Q8NER1. TRPV1-expressing cells, Fluo-8 calcium influx, capsaicin EC20 potentiation; host cell line not named in the record; control for the full effect not named in the record. potentiation, % at 8.33 µM. actives 0.02% (n = 320,000). AID 540277; active means potentiation above 80%; inconclusive means 30% to 80%; inactive means below 30%; further: 0% is about no effect
# Target sequence (Q8NER1 whole entry, looked up): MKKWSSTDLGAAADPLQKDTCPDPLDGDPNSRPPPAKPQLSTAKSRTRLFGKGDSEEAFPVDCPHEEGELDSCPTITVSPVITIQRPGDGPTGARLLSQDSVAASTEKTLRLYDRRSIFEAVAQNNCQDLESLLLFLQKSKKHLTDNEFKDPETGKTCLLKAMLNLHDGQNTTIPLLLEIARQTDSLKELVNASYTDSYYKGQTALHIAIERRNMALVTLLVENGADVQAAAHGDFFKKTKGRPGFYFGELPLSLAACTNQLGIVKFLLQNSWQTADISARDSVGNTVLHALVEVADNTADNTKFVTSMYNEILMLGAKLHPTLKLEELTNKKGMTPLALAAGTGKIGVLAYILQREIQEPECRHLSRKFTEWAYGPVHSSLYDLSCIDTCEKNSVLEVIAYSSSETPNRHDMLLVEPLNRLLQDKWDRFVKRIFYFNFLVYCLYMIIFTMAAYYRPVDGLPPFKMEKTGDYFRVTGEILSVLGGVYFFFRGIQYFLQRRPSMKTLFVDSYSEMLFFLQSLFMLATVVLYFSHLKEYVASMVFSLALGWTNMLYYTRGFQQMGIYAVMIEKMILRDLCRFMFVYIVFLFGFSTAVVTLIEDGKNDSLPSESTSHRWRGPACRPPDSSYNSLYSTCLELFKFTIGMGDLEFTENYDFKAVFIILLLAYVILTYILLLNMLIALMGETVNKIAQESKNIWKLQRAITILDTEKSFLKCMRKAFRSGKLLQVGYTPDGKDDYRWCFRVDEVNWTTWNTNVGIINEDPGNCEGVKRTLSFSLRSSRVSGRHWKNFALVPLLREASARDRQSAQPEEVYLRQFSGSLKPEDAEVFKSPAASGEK
#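 Fluo-8 calcium influx in TRPV1-expressing cells, kinetic read (ex 480/em 520 nm). Compound added and read 3 min for agonist activity, followed by capsaicin at EC20 final and 2 min further read for enhancement.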
# gsp antag: gsp mutant antagonism. actives 0.4% (n = 340,000). Potency, µM (top dose mostly 76.9 µM), for inactives: top-dose activity change, negative = inhibition, usual class: inhibitors. gsp-mutant cells, cAMP HTRF, 30 min; control for the full effect not named in the record. AID 624288; active = falling curve of any shape with a large fitted effect; inconclusive = falling curve, mostly with a smaller effect; inactive = flat or rising curve; cell line not stated here;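 further: intracellular cAMP measured with PDE inhibitor Ro 20-1724 present during compound exposure; potency means the concentration at half of the fitted maximal effect; on the % scale 0 is the no-effect control and ±100 the full control effect; nearly all actives have a fitted effect of over 65% in size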
#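 HTRF cAMP measurement after 30 min RT detection following 30 min, 37C compound treatment alongside […] (added as 300 uM solution) in G418-selected cells seeded at 2000/well and grown 16–24 h.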
# Menin-MLL FL inh: displaces fluorescein MLL peptide from human menin; Fluorescence polarization, fluorescein-MLL peptide displacement from menin; FP activity change, % at 61.4 µM; 290,000 tested, under 10 active; AID 1766; inconclusive = falling polarisation curve, or a change in total fluorescence; inactive = total fluorescence flat and polarisation flat or rising; no compound was filed as active; the % refers to the polarisation; negative = inhibition;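 further: % of control where 0% means no effect; inhibitors lower the polarisation; unlabelled MLL peptide was the positive control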
# Starred values were filed as active, the others as inactive; ? = inconclusive; · = no result given; & = joins results of further samples; [ ] = another dose, or the depositor's remark. An unsorted share of the library; overall some 5.3% were active at least once.
SMILES,ClpP mod,gsp ag,Sfp inh,CtBP-E1A blk,TRPV1 potentiator,gsp antag,Menin-MLL FL inh
CCC(NS(=O)(=O)c1cnn(CC)c1)c1ccccc1 (stereo not given),·,-1.4%[15.4 µM],7.8%,·,-6.2,11.1%,1.7
CSc1ncccc1C(=O)OCC(=O)N1CCCC1,-0.4%,11.5%,·,-14.6,·,9.5%,·
CCC(=O)Nc1cccc(NC(=O)COc2ccc(OC)cc2)c1,-2.0%,1.1%,7.8%,-1.1,-8.5,-7.0%,-1.3
CC(C)(C)N1CC(c2nc3ccccc3n2Cc2ccc(Cl)cc2)CC1=O (stereo not given),-13.2%,2.4%,5.7%,-3.6,-15.5,-26.2%,1.9
Cc1ccc(-c2cc(-c3ccco3)c(C#N)c(=O)[nH]2)cc1,-18.7%,13.8%[15.4 µM],?,12.8,-7.2,-5.9%,?
CC(=O)N=c1scc(-c2ccccc2)n1-c1cccc(O)c1,·,?,7.7%,-10.8,4.5,-14.9%,-0.5
O=C(O)CN1C(=O)/C(=C\c2cc(Br)ccc2OCc2ccc(F)cc2)SC1=S,-1.7%,-1.1%,-4.3%,-11.4,12.1,-25.6%,10.6
COc1ccc(Cc2c(C)nc(N)nc2Cl)cc1,-5.6%,14.5%,19.5%,0.0,2.6,3.4%,-0.3
CCN(CCCNC(=O)C1CCC(=O)N1C(C)C)c1cccc(C)c1 (stereo not given),1.0%,-3.3%,-1.4%,2.5,4.1,-3.9%,-0.5
CCN1C(=O)[C@H]2[C@@H](c3ccc(OC)cc3)N3C(=O)CN(Cc4ccccc4)C(=O)[C@@]3(Cc3ccccc3)[C@H]2C1=O,-1.1%,-20.3%,1.8%,1.1,-4.0,-4.7%,-0.5
COc1ccc(OCC(=O)N/N=C(\C)c2ccc(OC)cc2)cc1,·,12.5%[15.4 µM],21.3%,0.5,-5.4,-4.9%,-1.0
COc1cccc(CN(C)C(=O)c2cccc(OC3CCN(C4CCCC4)CC3)c2)c1,0.0%,3.5%,-1.2%,·,3.5,6.3%,-2.0
COc1ccc(C(=O)/C=C/c2cn(CC(O)CN3CCOCC3)c3ccccc23)cc1 (stereo not given),-0.7%,-9.6%,-21.6%,-25.3,27.4,-6.1%,?
Cc1cc(NC(=O)CSc2nnc(CNC(=O)c3cccc(C(F)(F)F)c3)o2)no1,0.3%,-58.3%[inhibitor],4.7%,-78.4*,2.9,-1.7%,·
CS(=O)(=O)c1nc(S(=O)(=O)c2ccc(Cl)cc2)c(NCCCN2CCCC2=O)s1,-2.5%,35.0%,2.7%,0.6,0.5,-10.8%,·
O=C(NCC(=O)N1CCC2(CC1)NCCc1[nH]cnc12)c1ccc(F)cc1,1.7%,1.2%,19.6%,·,-5.4,-9.6%,·
CCc1ccc(-c2nc(CN3CCCC(C(=O)O)C3)c(C)o2)cc1 (stereo not given),-11.1%,16.3%,16.2%,-8.2,-23.0,-11.2%,2.2
Cc1cc(Nc2ccc(Cl)cc2)n(-c2cccc(Cl)c2)n1,-4.0%,3.0%,9.6%,0.0,7.1,-4.4%,4.1
C=C1C(=O)OC2CC1C(O)CC(C)=CCCC(C)=CC(O)CC2C (stereo not given),-1.3%,-3.9%,·,10.5,·,13.5%,·
Cc1cccc(C(=O)Nc2cccc(S(=O)(=O)NCc3ccco3)c2)c1,0.2%,-27.9%,·,5.7,-6.6,-6.9%,·
CC(OC(=O)C1CSC2(C)CCC(=O)N12)C(=O)Nc1cccc(C#N)c1 (stereo not given),-0.8%,-5.8%,·,11.3,1.1,1.7%,·
C=CCn1c(SCc2c(C)noc2C)nc2ccccc2c1=O,-2.9%,5.7%,-5.0%,4.3,?,12.0%,1.3
C/C(=N/NC(=O)c1ccc(-c2ccccc2)cc1)c1cccc(O)c1,-2.0%,?,15.2%,1.2,-4.6,-12.3%,·
COC(=O)N(C)C[C@H]1OCc2cnnn2CCCC(=O)N([C@@H](C)CO)C[C@H]1C,-1.3%,-23.8%,·,4.8,·,·,·
OCc1nc2ccc(Cl)cc2[nH]1,0.8%,0.6%[15.4 µM],23.6%,7.9,2.6,9.0%,6.1
C[C@H]1CN([C@@H](C)CO)S(=O)(=O)c2ccc(/C=C/c3ccccc3)cc2O[C@H]1CN(C)C(=O)NC1CCCCC1,35.5µM*,?,·,-7.0,·,·,·
C/C(=N\NC(=O)C1CC1)c1ccc(NC(=O)c2ccc(Br)o2)cc1,·,·,-13.6%,·,-10.6,·,5.3
CCCn1c2ccccc2c2cnn(CC(=O)OC)c(=O)c21,?,10.2%[15.4 µM],7.1%,13.9,2.0,-19.9%,-0.3
Cc1cc(C(F)F)n2nc(C(=O)Nc3cc(C)on3)nc2n1,-2.0%,6.2%,3.6%,2.0,7.3,0.6%[15.4 µM],0.1
C/C(=N\OC(=O)c1ccc(C)cc1)c1sc(C)nc1C,-28.3%,-30.9%[inhibitor],2.4%,8.3,8.7,1.8%,-2.9
CC(C)CC(=O)NN(C)c1nc(-c2ccccc2)nnc1C(F)(F)F,0.1%,-4.6%,9.6%,2.5,-10.1,14.8%,-1.9
O=C(COC(=O)c1cccnc1Cl)Nc1cc(S(=O)(=O)N2CCCCCC2)ccc1Cl,0.1%,24.8%[15.4 µM],·,-2.2,?,-12.4%,·
CCOC(=O)C(=CNc1cc(C)nn1-c1ccc(C)cc1)C(=O)OCC,-1.7%,-45.7%[inhibitor],7.4%,7.9,-25.4,-34.2%,1.5
O=C(O)c1occc1CSc1ccccc1,·,2.2%[15.4 µM],9.2%,8.0,-0.2,0.8%,-1.9
CCN(CC)CCCN1C(=O)C(O)=C(C(C)=O)C1c1cccc(OC)c1 (stereo not given),·,·,17.5%,·,11.7,·,1.2
COc1ccc(N2CCN(CCNC(=O)CCNS(=O)(=O)c3cccs3)CC2)cc1,-0.1%,-26.3%,2.3%,-1.0,-11.8,7.3%,2.1
CC1CC(C)CN(CCCNC(=O)c2nn(C)c3c2CS(=O)(=O)c2ccccc2-3)C1 (stereo not given),-10.0%,10.5%,5.0%,0.0,6.7,3.0%,-3.3
CC(=O)N1CCN(C(=O)c2cccc(S(=O)(=O)Nc3ccc(C)cc3)c2)CC1,2.3%,1.6%,9.8%,-3.5,0.7,4.1%,3.8
COC(=O)[C@@H]1C[C@@]2(O)[C@H](O)[C@H](O)[C@H](O)C[C@H]2N1Cc1ccccc1OS(=O)(=O)c1ccc(C)cc1,-2.7%,·,12.7%&-2.0%,-20.2,-34.7,-5.8%,-2.1&0.4
Cc1ccc(-c2noc(CCC(=O)NCCCN3CCN(c4cccc(Cl)c4)CC3)n2)cc1,-3.5%,19.3%,-17.3%,-3.7,12.3,10.2%[15.4 µM],1.2
CCOC(=O)N=S(=O)(Oc1ccc([N+](=O)[O-])cc1)c1ccc(Cl)cc1 (stereo not given),-1.8%,8.2%,-9.2%,-18.0,-3.6,1.7%,2.3
CCOC(=O)C1CCCN(c2cc(=O)n(Cc3ccc(F)cc3)c(=O)[nH]2)C1 (stereo not given),-0.8%,-40.2%[inhibitor],6.5%,13.8,-2.1,-11.0%,1.0
CNc1nc(N)c([N+](=O)[O-])c(Nc2cccc(Cl)c2)n1,-1.1%,7.7%,10.0%,·,-0.9,-0.9%,4.5
CC(C#N)Sc1nnc(Nc2ccccc2)s1 (stereo not given),·,17.7%,3.8%,-0.1,-17.0,-10.0%,5.7
CC(=O)c1cccc(NC(=O)CN(C)S(=O)(=O)c2ccc3c(c2)CCC(=O)N3)c1,-1.3%,-18.5%,0.4%,-6.7,-5.0,0.1%,-3.9
COC(=O)c1cc2c(=O)c3ccccc3oc2nc1/C=C/N(C)C,-2.4%,-7.2%[15.4 µM],-5.8%,22.5,17.9,35.5µM*,?
CC(C)(C)c1cc(C(=O)NCc2ccccc2)ccn1,1.2%,-30.8%[inhibitor],20.9%,9.1,-11.1,-14.4%,3.3
CCOc1cc(Br)ccc1S(=O)(=O)N1CC(C)OC(C)C1 (stereo not given),-0.6%,-10.7%,1.5%,-8.5,10.7,3.7%,0.3
CC(=O)Oc1ccc(C(=O)NC(C)CCc2ccccc2)cc1 (stereo not given),-1.1%,-32.1%[inhibitor],20.9%,·,-9.4,0.5%,-2.1
O=C(NCc1cccnc1)c1ccc(CS(=O)(=O)c2ccc(Cl)cc2)o1,0.9%,0.0%,-2.0%,5.7,1.2,3.8%,0.6
Cc1ccc(C(=O)CSc2nnc(CNc3ccc(F)cc3)o2)cc1,-4.0%,-12.8%,17.2%,-1.3,1.1,2.8%,1.1
COc1ccc(S(=O)(=O)N2CCC(C(=O)N[C@@H](C)C(=O)NCc3ccccc3OC)CC2)cc1,2.4%,-16.6%,11.0%,0.6,?,-0.7%,·
COc1ccc(CCNc2nc(-c3cccc(NC(C)=O)c3)cs2)cc1OC,·,24.7%,-23.9%,-1.5,?,?,7.5
COc1cc(CN(C)Cc2ccccc2)cc(OC)c1O,-0.2%,-0.3%,?,1.0,16.4,7.0%,0.2
C[C@H](CO)N1C[C@H](C)[C@@H](CN(C)C(=O)NC2CCCCC2)Oc2c(NC(=O)Cc3ccccc3)cccc2C1=O,1.2%,10.6%,·,-0.5,·,1.6%,·
COc1ccc(Oc2ncccc2NC(=O)c2cccc(C)c2C)cc1,-1.3%,-3.5%[15.4 µM],-3.5%,-0.2,·,-1.8%,3.8
N#CCCN(Cc1cccnc1)S(=O)(=O)c1ccc(S(=O)(=O)NC2CCCCC2)cc1,-1.8%,-15.1%,-12.6%,-1.5,-7.7,-15.8%,0.7
O=C(Nc1nnc(Cc2c[nH]c3ccccc23)s1)c1ccc(Cl)cc1Cl,2.4%,-15.2%,?,-11.3,4.0,5.7%,4.8
CCCN(C(=O)c1ccccc1Cc1ccccc1)C1CCS(=O)(=O)C1 (stereo not given),-1.4%,-2.9%[15.4 µM],·,3.5,-4.0,-0.8%,·
CC(C)COc1ccc(Cc2cnc(N)nc2N)cc1,-0.2%,-1.9%,-8.1%,-1.9,3.6,15.2%,2.5

# Screens as filed in PubChem BioAssay.
